Mtb growth – M. tuberculosis H37Rv growth inhibitors, H37Rv strain (AID 1626); M. tuberculosis H37Rv growth inhibition; higher % means a stronger effect; actives 0.95% (n = 220,000); inhibition, % at 10 µM, or IC50 in µM where a hit was titrated;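 active = confirmed in a dose series; inconclusive = inhibition above 80% but not taken into the dose series; inactive = below 80% or under 30% at every dose of the series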;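 note: bacteria incubated seven days before Alamar blue readout; 0% = bacteria only wells and 100% = bacteria with antibiotic wells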
Mtb bLac sens – beta-lactam sensitization of Mtb H37Rv | M. tuberculosis H37Rv growth with meropenem, percent inhibition; hits of this screen are not shown here | inhibition, % at 25 µM | actives 0.27% (n = 330,000) | AID 434955;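 active = about 74% or more and at least 40 points above the plate without the antibiotic, then above 30% in a dose series; inconclusive = first-round hits that could not be retested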;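 note: growth measured after seven days incubation then overnight dye step; 0% = bacteria only wells and 100% = bacteria with antibiotic; twin plates without the antibiotic show which effects depend on it; some results filed as inactive read as strong as hits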
YopH PTP inh – blocks Yersinia enterocolitica YopH tyrosine phosphatase. fluorescence Ex485/Em525. inhibition, %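 (about 10 µM by stock and volumes)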. actives 0.16% (n = 140,000). AID 898;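 active = inhibition of 50% or more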;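 note: controls were vehicle for no effect and minimum signal wells for full effect; inactives centre near -20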
RecA intein inh – inhibitors of M. tuberculosis RecA intein splicing; P9WHJ3; cell-free RecA intein splicing, fluorescence; inhibition, %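 (about 9 µM by stock and volumes)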; actives 0.75% (n = 290,000); in the data active = inhibition above about 30%; inconclusive = no clear call, values can overlap the other calls;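 note: 0% = vehicle wells and 100% = reference inhibitor control wells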
Target sequence (P9WHJ3 whole entry, looked up): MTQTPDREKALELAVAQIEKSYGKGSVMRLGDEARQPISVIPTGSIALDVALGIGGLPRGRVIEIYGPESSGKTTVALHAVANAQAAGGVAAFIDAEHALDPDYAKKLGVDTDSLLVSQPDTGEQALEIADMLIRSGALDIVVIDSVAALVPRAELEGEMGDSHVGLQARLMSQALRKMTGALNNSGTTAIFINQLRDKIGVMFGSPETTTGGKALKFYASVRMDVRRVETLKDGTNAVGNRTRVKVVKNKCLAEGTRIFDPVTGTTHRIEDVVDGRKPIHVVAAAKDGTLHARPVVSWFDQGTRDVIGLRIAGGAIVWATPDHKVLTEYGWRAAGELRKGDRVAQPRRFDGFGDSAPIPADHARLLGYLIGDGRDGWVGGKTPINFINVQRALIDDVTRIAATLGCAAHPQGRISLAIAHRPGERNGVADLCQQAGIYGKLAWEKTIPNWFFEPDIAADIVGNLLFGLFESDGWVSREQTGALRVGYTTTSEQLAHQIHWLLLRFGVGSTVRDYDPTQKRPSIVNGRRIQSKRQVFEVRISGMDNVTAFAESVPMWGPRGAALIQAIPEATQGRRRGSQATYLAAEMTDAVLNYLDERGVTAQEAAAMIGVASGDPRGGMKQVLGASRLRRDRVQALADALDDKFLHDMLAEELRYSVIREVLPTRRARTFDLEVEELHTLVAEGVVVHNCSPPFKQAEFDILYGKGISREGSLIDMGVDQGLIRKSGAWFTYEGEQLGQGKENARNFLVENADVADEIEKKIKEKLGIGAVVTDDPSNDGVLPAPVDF
Arbovirus inh – arbovirus infection inhibition; arbovirus infection cell-based antiviral screen; inhibition, % at 10 µM; actives 0.37% (n = 200,000); AID 1251;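 active = inhibition from about 30%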;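 note: bluetongue infection of BSR cells; cell survival read as ATP light after 72 h; 0% = infected wells without compound and 100% = uninfected wells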
An asterisk follows results filed as active; ? = inconclusive; / = no result given; & = joins results of further samples. These rows are one share of the data; count on the stated rates, not on these rows.

Values run as follows: Mtb growth, Arbovirus inh, Mtb bLac sens, RecA intein inh, YopH PTP inh
- CCc1ccnc(NS(=O)(=O)c2ccc3c(c2)CCO3)c1
 : 1.5%, /, -4.3, 1.4, /
- COc1cccc(CNC(=O)CN(C)S(=O)(=O)c2cnc[nH]2)c1
 : -8.1%, 4.2, 3.7, -1.8, -36.7
- O=C(Nc1ccccc1F)c1ccccc1C(=O)Nc1ccccc1F
 : /, /, -6.2, 2.0, /
- O=C(NC1=NCCS1)c1cc(-c2ccc(F)cc2)nc2ccccc12
 : 13.9%, -7.8, 51.1, -3.3, -25.7
- CS(=O)(=O)Nc1ccc(C(=O)Nc2ccc(S(=O)(=O)N3CCCCC3)cc2)cc1
 : /, /, -0.4, -2.2, /
- COC(=O)CSc1nnc(COc2cccc3ccccc23)o1
 : /, /, -9.6, 6.1, /
- COc1ccc(CN(C(=O)c2cc3ccccc3oc2=O)C2CCCC2)cc1
 : 2.8%, -0.7, 1.2, /, -12.4
- COc1ccc2c(=O)c3c(=O)n(-c4ccccc4)c(-c4ccco4)nc3oc2c1
 : 1.3%, 1.9, 1.5, /, -40.9
- CC1C(C)N1CC(O)Cn1ccnc1[N+](=O)[O-] (configuration not stated)
 : 2.9%, /, 6.0, -2.4, /
- CCOC(=O)C1CCN(/C=C2/C(=O)NC(=O)N(Cc3ccco3)C2=O)CC1
 : -6.2%, 8.4, 3.1, 1.5, -3.5
- COc1ccc(Nc2cc(Nc3ccccc3)ncn2)cc1
 : /, /, -1.0, 4.7, /
- Cc1cc(NC(=O)CSc2nc(Cc3ccc(O)cc3)c(C)[nH]2)no1
 : /, /, 10.3, 0.3, /
- COc1cc2c(cc1OC)-c1cc(NC3CCCCC3)nc(=O)n1CC2
 : -9.6%, 0.8, -7.7, 0.1, -40.8
- O=C(/C=C/c1ccccc1)NCCC1=CCCCC1
 : 1.2%, -4.2, 1.8, 7.2, -17.6
- N#CC1=C2SCCN2C(=O)C(C#N)C12CCCCC2 (configuration not stated)
 : -8.1%, 8.7, -6.1, -4.5, -42.3
- CCn1ncc(Cl)c1C(=O)Nc1ccncc1
 : -13.9%, -0.8, -10.9, 0.5, -19.4
- Cc1nc2ccccc2c(=O)n1-c1ccc(NS(=O)(=O)c2ccc(F)cc2F)cc1
 : /, /, -10.4, 1.2, /
- COc1ccc2c(c1OC)C(=O)N(C(C)C(=O)O)C2=O (configuration not stated)
 : -14.1%, 1.2, -0.6, 0.9, -35.2
- Cc1ncc2c(c1OC(=O)c1ccccc1)COC(C)(C)OC2
 : -21.8%, 3.6, 2.9, -0.9, -5.2
- CCCC(C)C(=O)NCc1ccc2c(c1)OCO2 (configuration not stated)
 : 6.3%, -5.3, 6.4, -0.3, -16.6
- CC(NCC1(N2CCOCC2)CCCCC1)C(=O)Nc1ccc(Cl)cc1Cl (configuration not stated)
 : 8.8%, 4.5, -0.1, 1.5, /
- O=C(O)c1ccccc1-n1c(-c2ccccc2)cc2c1CCCC2=O
 : 1.6%, 1.1, 29.6, -0.4, /
- CSc1cccc(NC(=O)CCc2ccccc2)c1
 : ?, 1.1, -9.4, 4.4, /
- Cc1ccc(OCc2nnc(SCC(=O)c3cccs3)n2-c2ccccc2)cc1C
 : -5.1%, -1.4, -6.3, 0.7, -13.6
- CCOc1ccc(NC(=S)N2c3ccccc3CC2C)cc1 (configuration not stated)
 : 59.6%, -0.1, 0.7, 3.7, /
- CCS(=O)(=O)c1cc([N+](=O)[O-])c(Sc2ccccc2NC(C)=O)s1
 : -1.1%, /, 25.6, 1.8, /
- O=C(Cc1coc2ccc3ccccc3c12)NC1CCCc2ccccc21 (configuration not stated)
 : 11.6%, -5.8, 2.6, 10.9, -12.1
- Cc1ccc(C2(C)NC(=O)N(CC(=O)Nc3c(C)n(C)n(-c4ccccc4)c3=O)C2=O)cc1 (configuration not stated)
 : 0.8%, -5.3, -6.6, 2.7, -10.0
- CCN1CCN(C(C(=O)NC2CCCCC2)c2ccc(Cl)cc2)CC1 (configuration not stated)
 : 1.3%, -6.8, -8.1, 0.9, 1.6
- CN(C)CCCN(C(=O)c1ccc(S(=O)(=O)N2CCc3ccccc32)cc1)c1nc2ccc(F)cc2s1
 : /, /, 11.4, 8.0, /
- Cn1c(=O)c(C(=O)NCc2ccccc2)c(O)c2ccccc21
 : /, /, 1.5, 0.1, /
- CCOCc1nnc(NC(=O)C2CCN(C(=O)c3ccco3)CC2)s1
 : /, /, -5.7, -0.7, /
- NC(=O)CC(NC(=O)c1cccc(Br)c1)c1ccc(N2CCN(c3ccccn3)CC2)c([N+](=O)[O-])c1 (configuration not stated)
 : /, /, 10.4, 2.0, /
- O=[N+]([O-])c1c(NCCO)cc(N2CCC3(CC2)OCCO3)c2nonc12
 : -7.6%, 6.8, 3.4, -0.4, -7.2
- CC(C)(C)C1=NN(c2ccc([N+](=O)[O-])cc2)C(c2ccccc2)C1 (configuration not stated)
 : 12.1%, 12.5, 4.5, /, /
- CCC1C(=O)Nc2nc(-c3ccccc3)c(-c3ccccc3)n2N=C1C (configuration not stated)
 : 6.9%, -6.3, 7.2, -1.0, -34.5
- COc1ccc(S(=O)(=O)Nc2ccc(NC(C)=O)cc2)cc1OC
 : -12.4%, 0.8, -4.4, 2.5, -12.4
- COc1ccc(/C=C2\NC(=S)N(CC3CCCO3)C2=O)c(OC)c1C (configuration not stated)
 : 0.1%, -0.8, -0.5, 5.8, -16.8
- CC1Cc2ccccc2N1CC(=O)NCc1ccc2c(c1)OCO2 (configuration not stated)
 : -5.1%, 5.0, -0.6, 3.8, -20.5
- C=CCC1(O)C(=O)N2C(=C1C(=O)OCC)c1ccc3ccccc3c1CC2(C)C (configuration not stated)
 : /, -8.3, -10.0, /, -6.8
- CSCCC(NC(=O)C1CCCC1)c1nnc2ccccn12 (configuration not stated)
 : /, /, -5.9, -2.3, /
- O=C1NCC(COc2ccc(Cl)cc2)O1 (configuration not stated)
 : -1.6%, 10.2, 2.2, -0.1, /
- CCOCCCNC(=O)CN1CCN(c2ccc(F)cc2)CC1
 : -2.5%, -1.9, 5.5, /, -44.8
- CCOC(=O)N1CCN(Cc2nc(-c3ccc(C)cc3)no2)CC1
 : 10.8%, 15.5, -0.3, 1.0, -8.8
- COc1ccc(CCNC(=O)CCN2C(=O)c3ccccc3C2=O)cc1OC
 : 6.6%, -1.3, -7.5, -2.0, /
- CCOc1ccc2nc(SCC(=O)N3c4ccccc4Sc4ccccc43)sc2c1
 : -0.7%, -10.0, -0.7, 1.3, -7.9
- COc1c(Cl)cc(Cl)cc1C(=O)Nc1ccc(NC(=O)c2cccs2)cc1
 : 56.1%, -6.7, 66.2, -1.8, -18.6
- O=C(CCc1nnc2ccc(N3CCCCC3)nn12)NCC1CCN(Cc2ccc(F)cc2)CC1
 : /, /, 2.3, 0.0, /
- O=C(CN1CCN(c2ccccc2F)CC1)N1N=CCC1c1ccccc1 (configuration not stated)
 : 5.1%, -0.8, 3.6, -1.0, -2.7
- N#Cc1ccccc1NC(=O)COC(=O)c1ccc(S(=O)(=O)N2CCCC2)cc1
 : -6.6%, 6.3, -0.9, 0.8, -7.6
- CCN(CC)CCNC1=CC(=O)OC12CCCCC2
 : -3.7%, 2.7, -1.9, -1.4, 0.8
- COc1cc(/C=N/Nc2cccc(C)c2)cc(Br)c1O
 : ?, -25.4, /, /, /
- CSCCC(NS(=O)(=O)c1ccccc1F)C(=O)OCc1ccccc1Cl (configuration not stated)
 : 5.5%, 9.8, 0.2, 8.1, -3.7
- Cc1ccc(NC(=O)CN(C)C(=O)CCC(=O)N2CCOCC2)cc1
 : /, /, 2.6, -1.0, /
- Cc1ccc(S(=O)(=O)N(CC(=O)NCc2ccncc2)Cc2ccc(F)cc2)cc1
 : /, /, -1.7, 0.8, /
- O=C(CN1C(=O)NC2(CCCCCC2)C1=O)NC1CCCCCCC1
 : 1.4%, 7.7, 12.2, 4.8, /
- CCOC(=O)Cn1c(-c2ccccc2)ccc(C#N)c1=O
 : 4µM*, -1.4, 97.5, -2.8, /
- COc1cccc(CNC(=O)C2CCC(CNS(=O)(=O)c3cccc4cccnc34)CC2)c1 (configuration not stated)
 : /, /, -7.6, 2.6, /
- Cc1cc(C)cc(C(=O)Nc2cccc(NC(=O)c3ccco3)c2)c1
 : /, /, 5.6, 0.6, /
- O=C(c1ccc(C(F)(F)F)cc1)C1CCCN(C(=O)CN2C(=O)CSC2=O)C1 (configuration not stated)
 : 2.7%, -0.6, 1.0, -0.2, /

Additional entries follow.
Values run as follows: Mtb growth, Arbovirus inh, Mtb bLac sens, RecA intein inh, YopH PTP inh
- Cc1nn(-c2ccccc2)c(C)c1/C=N/NC(=O)CSc1nc2ccccc2c(=O)n1-c1ccc(Br)cc1
 : ?, -12.2, 97.3, -0.1, -22.6
- CSc1ccc2c(c1)C(N1CCN(C)CC1)Cc1ccccc1S2 (configuration not stated)
 : 8.54µM*, /, 99.7&98.6, 5.3&6.9, /
- O=C(CO/N=C/c1ccc(OC(F)F)cc1)N1CCc2ccccc21
 : 0.8%, 0.4, -4.5, -1.8, -24.9
- CC(=O)N1CCc2ccc(NC(=O)c3c(-c4c(Cl)cccc4Cl)noc3C)cc21
 : -16.2%, /, 1.1, /, /
- O=C(CSc1nc(O)c(Cc2ccccc2)c(=O)[nH]1)Nc1nnc(SCc2ccccc2)s1
 : -4.7%, 0.2, -13.1, 9.4, /
- COc1cc(/C=C2\N=C(C)OC2=O)cc(OC)c1OC
 : /, /, -0.1, -1.9, /
- Brc1ccc2c(c1)C(OC1CN3CCC1CC3)c1ccccc1CS2 (configuration not stated)
 : 63.0%, -42.3, 96.5, 1.4, -14.0
- CC(C)CC(=O)NC(=S)Nc1cccc(NC(=O)c2ccccc2Cl)c1
 : -0.9%, -3.4, -1.0, -2.1, 9.7
- C=CCNc1nc(S(=O)Cc2ccc(C)cc2)nc2c1CCCC2 (configuration not stated)
 : -0.6%, -11.2, -6.4, 6.3, /
- CCOc1ccc(N=C2NC(=O)C(CC(=O)Nc3ccc(OC)cc3)S2)cc1 (configuration not stated)
 : -4.4%, -9.2, -3.1, -1.5, /
- CC(=O)c1ccc(NC(=O)CN2C(=O)CCC2=O)cc1
 : -1.9%, 15.2, -2.9, 4.3, /
- CC(C)C(NS(=O)(=O)c1ccc(Br)s1)C(=O)O (configuration not stated)
 : -1.6%, 6.7, 9.6, 0.0, -56.0
- O=C(Nc1cccc(F)c1)c1cccnc1
 : /, /, -8.0, 0.2, /
- Cc1ccc2nc(N3CCOCC3)c(C=O)c(=O)n2c1
 : -5.7%, 0.7, -8.9, -0.2, /
- CCCC12CN3CN(C1)CC(CCC)(C3)C2O (configuration not stated)
 : -5.7%, 6.4, -18.1, -0.3, -8.1
- O=C(c1ccc(N2CCCCC2)c([N+](=O)[O-])c1)N1CCN(c2ccccn2)CC1
 : -2.8%, -4.6, -6.6, 3.5, /
- CC(C)NC(=O)Cn1nnc(-c2ccc(Cl)cc2)n1
 : /, 2.6, 7.3, 3.6, -12.8
- COCC1CCN(C(=O)c2cc(COc3ccc4ncccc4c3)on2)CC1
 : 2.9%, 8.3, -10.0, -2.6, /
- COCCN(C(=O)CSc1n[nH]c(-c2ccccc2)n1)c1c(N)n(CC(C)C)c(=O)[nH]c1=O
 : /, /, -5.5, -1.2, /
- Cc1ccc(C(=O)NC(=C(Cl)Cl)S(=O)(=O)c2ccc(C)cc2)cc1
 : 8.2%, -14.0, 2.6, 7.0, -45.6
- Cc1nc(NC(=O)c2cc3c(s2)CCCCC3)sc1C(=O)N(C)C
 : 2.2%, -8.8, 19.9, -3.1, -18.0
- CN1C(=C2C(=O)OC(C)(C)OC2=O)Sc2ccccc21
 : 2.4%, -9.2, 1.9, 0.1, -34.5
- CCN(CCCNC(=O)CCC(=O)N1CCOc2ccccc21)Cc1ccccc1
 : /, /, -5.0, -0.1, /
- O=C1NC(=O)N(Cc2ccccc2Cl)C(=O)/C1=C/N1CCOCC1
 : 2.3%, -2.3, -2.0, 0.4, -8.7
- COC(=O)Cc1c(C(=O)OC)nnn1-c1ccc(OC(F)(F)F)cc1
 : 5.4%, 10.3, 2.7, 0.6, /
- COc1ccc(NC(=S)NC(NC(=O)c2cccc3ccccc23)C(Cl)(Cl)Cl)c([N+](=O)[O-])c1 (configuration not stated)
 : 5.7%, -18.8, -1.6, 5.4, -14.3
- CC(C)(O)C#Cc1ccccc1C(=O)NC(CC(N)=O)C(=O)O (configuration not stated)
 : 4.2%, 4.3, -6.0, -4.2, -36.8
- COc1ccc(/C=N/NC(=O)c2ccc(CN3c4cccc5cccc(c45)S3(=O)=O)cc2)cc1
 : 1.0%, -8.8, -6.4, -1.1, -38.5
- O=C(CSc1nnnn1-c1ccc(F)cc1)c1ccc(O)c(O)c1
 : 6.2%, -14.2, -2.0, 0.5, /
- COCCSc1nnc(NS(=O)(=O)c2ccc(F)cc2)s1
 : -0.3%, 12.6, 0.5, /, /
- CN(C)S(=O)(=O)c1cccc(C(=O)C2=C3SC=C(c4ccccc4)N3CC2)c1
 : -12.6%, -14.3, 1.5, 0.9, -23.1
- CC(C)(C)c1ccc(/C=C2/SC(N3CCCC3)=NC2=O)cc1
 : 34.1%, /, 29.4, 16.8, /
